RGS16-Gao – regulators of human RGS16-Galphao interaction. O15492+P09471. bead-based flow cytometry RGS16-Galphao binding, fluorescence; actives lie on both sides. binding response (% of control), % at 10 µM. 220,000 compounds, 0.38% hits. AID 1441;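 active = below 25% or above 175%, edge rows of some plates excepted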;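 also: Galphao activated by GDP with aluminum fluoride before binding; 100% = wells without compound and 0% = beads without RGS; some results beyond the cut were filed as inactive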
Target sequence (O15492 whole entry, looked up): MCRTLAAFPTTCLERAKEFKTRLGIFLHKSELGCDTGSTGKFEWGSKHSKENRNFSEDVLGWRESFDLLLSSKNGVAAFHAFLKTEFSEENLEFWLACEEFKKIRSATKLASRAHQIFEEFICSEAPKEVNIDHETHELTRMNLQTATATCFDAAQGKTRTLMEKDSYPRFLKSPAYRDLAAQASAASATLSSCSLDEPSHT
Target sequence (P09471 whole entry, looked up): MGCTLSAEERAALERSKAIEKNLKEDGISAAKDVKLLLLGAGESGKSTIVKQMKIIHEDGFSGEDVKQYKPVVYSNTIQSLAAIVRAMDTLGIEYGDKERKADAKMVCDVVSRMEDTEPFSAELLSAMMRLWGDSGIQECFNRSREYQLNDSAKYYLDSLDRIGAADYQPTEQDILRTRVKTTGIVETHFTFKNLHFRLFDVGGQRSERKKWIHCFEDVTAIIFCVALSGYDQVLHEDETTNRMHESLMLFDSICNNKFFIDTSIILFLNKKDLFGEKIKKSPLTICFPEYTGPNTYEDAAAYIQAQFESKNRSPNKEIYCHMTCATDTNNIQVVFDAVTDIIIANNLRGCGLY
HSV replic up – increases HSV replication in cells. AID 1956. maximum fold increase. 220,000 compounds, 0.005% hits. HSV replication augmentation in cells, fold increase;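 active = peak rise of 1.5-fold or more in the series; tested in PC3 cells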;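 also: first round at 10 µM; read as green reporter fluorescence; hits show the peak of a series up to 25 µM; 1 = signal of infected wells without compound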
PKD1 kinase inh – PKD1 (human) kinase inhibition; Q15139; PKD1 kinase fluorescence polarization assay; inhibition, %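 (about 10 µM by stock and volumes)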; 200,000 compounds, 0.056% hits;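 active = inhibition of 50% or more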;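 also: controls were vehicle for no effect and a reference inhibitor for full effect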
GALR2 agonist – GALR2 (human) receptor agonism; AID 803; activation, %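 (tested at 5 µM)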; GALR2-expressing cells, agonist activation read-out; 140,000 compounds, 0.48% hits; O43603;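 active = above mean plus 3 SD of all compounds, about 5% in these data, not always enough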;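 also: 0% = vehicle buffer wells and 100% = reference agonist at full effect; tested in CHO reporter cells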
Target sequence (O43603 whole entry, looked up): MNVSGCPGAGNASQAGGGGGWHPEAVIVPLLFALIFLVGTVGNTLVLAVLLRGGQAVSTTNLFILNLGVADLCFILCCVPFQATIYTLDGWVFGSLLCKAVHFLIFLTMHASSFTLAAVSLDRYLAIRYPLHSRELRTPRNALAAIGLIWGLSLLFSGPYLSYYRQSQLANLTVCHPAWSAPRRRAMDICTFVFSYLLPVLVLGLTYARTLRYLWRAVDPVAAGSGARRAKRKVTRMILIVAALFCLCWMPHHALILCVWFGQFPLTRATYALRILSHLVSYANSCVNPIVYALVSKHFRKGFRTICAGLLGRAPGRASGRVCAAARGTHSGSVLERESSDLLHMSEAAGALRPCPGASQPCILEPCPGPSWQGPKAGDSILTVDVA
INS promoter inh – TRM-6 insulin promoter activity inhibition; AID 1273; inhibition, % at 2 µM; TRM-6 cells (human fetal islet line), insulin promoter-eGFP reporter, imaging; reporter expression induced with tamoxifen; 130,000 compounds, 0.9% hits;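 active = inhibition above the mean plus 3 SD, with well images judged a real hit on visual review, cut at about 60% in these data, passing the limit was not always enough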
INS promoter inh cell count – also measured in INS promoter inh; calls as there; normalized cell count, %; measured here: cell count, toxicity; reference of the scale not given here;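 cells exposed to compound for 48 h; stained nuclei by imaging scaled within each plate; lower means fewer cells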
HSV replic up primary fold – further read-out of HSV replic up, marked with its call; fold increase; compound at 10 µM; measured here: primary screen fold increase 10 uM; tested in PC3 cells;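 GFP signal in the first replicate; 1 = infected wells without compound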
* marks the source's active call; other numbers are inactive results; i = inactive; . = no result given. The order is random (roughly 1.1% active in at least one column).

| mol | RGS16-Gao | HSV replic up | HSV replic up primary fold | PKD1 kinase inh | GALR2 agonist | INS promoter inh | INS promoter inh cell count |
| --- | --- | --- | --- | --- | --- | --- | --- |
| COc1ccc(/C=N/OCC(=O)N2CCCC2)c(OC)c1 | 99.7 | i | 0.88 | 1.0 | . | -25.0 | 66.7 |
| CCCCNC(=O)/C=C/c1ccc(S(=O)(=O)Nc2ccc(OC)cc2)cc1 | 101.4 | i | 0.87 | -6.6 | . | . | . |
| CCC(C)C(=O)Nc1cc([N+](=O)[O-])ccc1Cl (stereo unspecified) | 54.5 | i | 1.02 | -18.5 | -0.2 | 7.4 | 75.2 |
| Cc1cccc2cc(CN(Cc3ccccc3)C(=O)c3cccc(F)c3)c(Cl)nc12 | 99.9 | i | 1.01 | -10.0 | -1.6 | . | . |
| CCN(CC)S(=O)(=O)c1ccc(NC=C(C#N)C#N)cc1 | 100.1 | i | 1.07 | . | . | . | . |
| CCOC(=O)Cn1c(CN(Cc2ccccc2)Cc2ccccc2)nc2c1c(=O)n(C)c(=O)n2C | 118.6 | i | 1.03 | -17.3 | -2.4 | . | . |
| O=C(c1cccc(S(=O)(=O)N2CCCC2)c1)c1nnc(-c2ccncc2)o1 | 101.0 | i | 0.76 | -9.7 | 1.1 | 24.2 | 137.7 |
| O=C(Nc1cc(C(F)(F)F)ccc1F)C1CCC1 | 107.5 | i | 0.92 | -7.8 | -1.2 | 62.5 | 67.9 |
| Cc1nc2ccc(NC(=O)c3cccc(S(=O)(=O)N(C)c4ccccc4)c3)cc2s1 | 99.7 | i | 0.96 | -7.1 | -0.9 | -18.9 | 54.9 |
| CC(C)N1C(=O)/C(=C\c2nc3ccccc3c(=O)n2-c2ccccc2)c2ccccc21 | 93.2 | i | 0.64 | 7.5 | 40.9* | -9.4 | 55.4 |
| Cc1ccc2nsnc2c1S(=O)(=O)Nc1cccc2nsnc12 | 102.5 | i | 1.07 | -0.7 | -2.8 | . | . |
| Cc1ccnc(NS(=O)(=O)c2ccccc2)n1 | 103.4 | i | 0.95 | -11.1 | 0.9 | 23.7 | 103.4 |
| COc1ccc(NC(=O)COC(=O)C2CCCCC2)c([N+](=O)[O-])c1 | 99.4 | i | 1.18 | 4.7 | -1.8 | -183.9 | 125.6 |
| COCC(=O)Nc1ccc2nc3n(c(=O)c2c1)CCCCC3 | 100.9 | i | 0.95 | . | . | . | . |
| CCn1cc(Br)c(C(=O)N2CCN(c3ccccc3)CC2)n1 | 99.6 | . | . | -5.2 | -1.2 | -252.4 | 42.9 |
| Cc1cccc(NC(=S)NNc2ncc(C(F)(F)F)cc2Cl)c1 | 106.0 | i | 0.83 | -5.9 | -0.2 | 16.1 | 105.0 |
| COc1ccc(-c2nn(-c3ccccc3)cc2/C=N/Nc2ccc(S(N)(=O)=O)cc2[N+](=O)[O-])cc1OC | 96.8 | i | 0.92 | -11.5 | . | . | . |
| COc1ccc2c(c1)O[C@@H](c1cccc(C(F)(F)F)c1)[C@H](OC(=O)NCCc1ccc(OC)c(OC)c1)C2=O | 102.2 | . | . | 2.4 | -1.6 | -4.5 | 124.7 |
| CN(c1ccccc1)S(=O)(=O)c1ccc(NC(=S)NC(=O)c2ccccc2)cc1 | 107.5 | i | 1.03 | 6.3 | -0.9 | -26.7 | 121.8 |
| O=c1nccc(NCc2ccco2)[nH]1 | 102.1 | i | 0.91 | -13.1 | 0.1 | 8.8 | 110.7 |

Brought forward from above: 4 compounds, then new ones.
| mol | RGS16-Gao | HSV replic up | HSV replic up primary fold | PKD1 kinase inh | GALR2 agonist | INS promoter inh | INS promoter inh cell count |
| --- | --- | --- | --- | --- | --- | --- | --- |
| COc1ccc(-c2nn(-c3ccccc3)cc2/C=N/Nc2ccc(S(N)(=O)=O)cc2[N+](=O)[O-])cc1OC | 96.8 | i | 0.92 | -11.5 | . | . | . |
| COc1ccc2c(c1)O[C@@H](c1cccc(C(F)(F)F)c1)[C@H](OC(=O)NCCc1ccc(OC)c(OC)c1)C2=O | 102.2 | . | . | 2.4 | -1.6 | -4.5 | 124.7 |
| CN(c1ccccc1)S(=O)(=O)c1ccc(NC(=S)NC(=O)c2ccccc2)cc1 | 107.5 | i | 1.03 | 6.3 | -0.9 | -26.7 | 121.8 |
| O=c1nccc(NCc2ccco2)[nH]1 | 102.1 | i | 0.91 | -13.1 | 0.1 | 8.8 | 110.7 |
| Cc1nc2ncnn2c(C)c1CCC(=O)N1CCCCC1 | 100.9 | i | 0.71 | -1.4 | -4.2 | . | . |
| O=C(COc1ncnc2scc(-c3ccc(Cl)cc3)c12)NCc1ccco1 | 95.5 | i | 0.97 | -6.4 | -1.1 | -16.2 | 87.5 |
| Cc1ccc(-n2nc(C)c3c(C)c(CCC(=O)NCc4ccccc4)c(C)nc32)cc1 | 86.2 | i | 0.84 | -14.8 | -1.7 | . | . |
| CC(C)(C)C1CCC(=NNC(=O)C(=O)NC2CCCCC2)CC1 (stereo unspecified) | 110.4 | i | 0.89 | 2.6 | -0.8 | 31.0 | 115.7 |
| CNC(=S)NNc1nc(N2CCOCC2)nc(N2CCOCC2)n1 | 104.5 | i | 0.92 | -1.9 | . | 38.5 | 59.0 |
| NC(=O)c1cc2ccc(O)cc2oc1=Nc1ccccc1 | 99.7 | i | 0.7 | -6.6 | 3.2 | . | . |
| CCCCCCNC(=O)Nc1ccccc1 | 85.6 | i | 1 | -3.2 | 0.0 | 54.5 | 73.9 |
| O=C(CSc1nnc(-c2ccco2)n1Cc1ccccc1)NCc1ccccc1 | 121.3 | i | 0.61 | -4.9 | -1.9 | -281.2 | 68.5 |
| CN(C)CCCNc1ncnc2c1cnn2-c1ccccc1 | 97.4 | i | 0.81 | 11.1 | -1.7 | . | . |
| CC(=O)c1cccc(NC(=S)NC(=O)c2ccc(Cl)cc2)c1 | 107.4 | i | 0.83 | 2.0 | -2.7 | 10.8 | 119.7 |
| O=c1c2ccccc2nnn1CSc1nc2cc(Cl)ccc2c(=O)n1Cc1ccco1 | . | i | 0.94 | 6.0 | -0.9 | 2.7 | 68.8 |
| O=C(N/N=C/c1ccc([N+](=O)[O-])o1)c1sc2ccccc2c1Cl | 104.2 | i | 0.84 | . | . | . | . |
| COc1ccc(/C=C(\C#N)C(=O)NCc2cccnc2)cc1OC | 100.8 | i | 0.82 | 1.9 | . | . | . |
| O=C(Nc1ccccc1F)c1ccc(S(=O)(=O)NCC2CCCO2)cc1 (stereo unspecified) | 111.5 | i | 0.65 | -1.1 | -0.7 | . | . |
| O=C1CC(c2ccccc2)CC(O)=C1C=NCc1ccc(Cl)cc1 (stereo unspecified) | 101.8 | i | 1.04 | 0.7 | -2.5 | . | . |
| O=C(N/N=C/c1c(O)ccc2ccccc12)c1ccc[n+](CCO)c1 | 92.2 | i | 0.97 | -2.4 | . | -21.4 | 97.0 |
| CN(C)C(=O)CSc1nnc(CCN)o1 | 99.9 | i | 1.42 | 18.9 | -4.3 | -21.4 | 129.3 |
| Cc1nc(N)sc1C(=O)N1N=N1 | 104.4 | i | 1.05 | . | . | . | . |
| COc1cc(CN2CCC(C(=O)N3CCCC(C)C3)CC2)cc(OC)c1O (stereo unspecified) | 96.7 | i | 0.96 | 6.9 | -0.1 | . | . |
| O=C(/C=C/Nc1ccc([N+](=O)[O-])cc1)c1ccc(Br)cc1 | 90.8 | i | 0.95 | -0.1 | 1.7 | -35.4 | 128.3 |
| COc1ccc(-c2nnc(SCC(=O)N(Cc3ccccc3)C(C)(C)C)o2)cc1OC | 101.6 | i | 0.94 | 8.2 | 0.4 | . | . |
| O=C(/C=C/c1ccco1)Nc1ccccc1C(=O)O | 91.2 | i | 1.09 | 9.5 | . | 16.3 | 69.0 |
| COc1ccc(S(=O)(=O)N2CCC(C(=O)NCc3cccs3)CC2)cc1 | 122.1 | i | 1.01 | 0.6 | . | 28.6 | 101.3 |
| Cc1ccc(NC(=O)c2ccc(OCC3CCCO3)cc2)cc1 (stereo unspecified) | 104.6 | i | 0.91 | -11.8 | -1.4 | 40.0 | 184.3 |
| C=CCNC(=S)Nc1sc2c(c1C#N)CCCC2 | 99.5 | i | 1.07 | -4.4 | . | -105.3 | 137.3 |
| NS(=O)(=O)c1ccc(N=Nc2c(=O)[nH]n3c(=O)c4c([nH]c23)CCCC4)cc1 | 101.6 | i | 0.88 | -0.8 | . | . | . |
| CC1=NN(Cc2c(C)nn(Cc3ccccc3)c2C)C(C)(C)C1 | 99.3 | i | 0.84 | 11.0 | . | . | . |
| O=C(N/N=C/c1ccc([N+](=O)[O-])cc1)c1cc(-c2ccc3c(c2)OCO3)n[nH]1 | 104.0 | i | 0.82 | . | . | . | . |
| c1ccc2c(c1)Nc1cc3ccccc3cc1S2 | 98.2 | i | 1.07 | . | . | . | . |
| CCO[C@@H]1OC(C(=O)N2CCN(Cc3ccccc3)CC2)=C[C@H](c2ccc(Br)cc2)[C@H]1CCCO | 99.5 | i | 0.71 | 0.7 | . | . | . |
| Cc1csc(SCC(=O)NC(C)c2ccccc2)n1 (stereo unspecified) | 97.9 | i | 0.97 | 1.2 | . | . | . |
| COc1cc(CNc2ccc(C)c(C)c2)cc(OC)c1OC | 101.3 | i | 0.67 | -4.6 | -0.5 | 9.1 | 100.0 |
| CC(=O)OCc1c(C(F)(F)F)nn(C)c1Oc1cccc(C(F)(F)F)c1 | 101.0 | i | 0.94 | 13.1 | -2.2 | -60.0 | 63.7 |
| COCCOC(=O)CSc1ncccc1-c1nc2cc(C)c(C)cc2[nH]1 | 110.1 | i | 1.06 | 2.5 | . | -109.1 | 97.8 |
| O=c1c(-c2ccnn2-c2ccc(F)cc2)cnc2n1CCS2 | 103.7 | i | 1.08 | -0.1 | -1.1 | -25.0 | 200.9 |
| CC1=CC(C)(C)N2C(=O)C3(N=C(N)NC(Nc4ccccc4)=N3)c3cc(C)cc1c32 (stereo unspecified) | 108.1 | i | 0.85 | 3.8 | -1.2 | -481.2 | 61.4 |
| N#Cc1c(-c2ccccc2)nc(SCC(=O)Nc2ccccc2F)[nH]c1=O | 100.6 | i | 0.98 | -9.4 | -0.1 | -30.8 | 142.3 |
| COc1ccccc1Cc1nc(-c2ccncc2)no1 | 102.0 | i | 0.87 | -3.5 | . | -90.9 | 93.2 |
| CCN(CC)S(=O)(=O)c1ccc(NC(=O)CSc2nnc(-c3ccc(F)cc3)o2)cc1 | 100.2 | i | 0.92 | -14.1 | -1.3 | . | . |
| COc1ccc(C2CC3(CC(C)(C)NC(=S)N3)Oc3cc(O)cc(C)c32)cc1 (stereo unspecified) | 104.0 | i | 0.92 | -5.6 | 1.2 | -6.9 | 123.7 |
| O=[N+]([O-])c1ccc2nc(-c3ccncc3)[nH]c2c1 | 99.7 | i | 1.18 | . | . | . | . |
| O=C(Cc1ccccc1)NC(=S)Nc1cc(C(F)(F)F)ccc1Cl | 103.6 | i | 0.93 | -4.0 | 8.4* | -27.9 | 145.9 |
| C=CCn1c(=O)c(C(=O)Nc2ccccc2C(=O)OCC)c(O)c2ccccc21 | 99.5 | i | 0.97 | -2.1 | -2.6 | -16.1 | 74.7 |
| CCn1cc(C(=O)N2CCc3ccccc3C2)c(=O)c2cc(S(=O)(=O)N3CCCCC3)ccc21 | 111.9 | i | 0.86 | -16.7 | -1.1 | 33.3 | 118.8 |
| COc1ccccc1N1CCN(C(=S)Nc2ccc3nc(N4CCOCC4)cc(C)c3c2)CC1 | 168.8 | i | 0.7 | -12.3 | . | 9.1 | 57.9 |
| CNS(=O)(=O)c1ccc(OC)c(-c2nnc3c4ccccc4c(C)nn23)c1 | 123.3 | i | 0.83 | -1.3 | -0.5 | 7.3 | 100.0 |
| NC(=O)c1sc2nc3c(c(-c4ccco4)c2c1N)CCC3 | 93.4 | i | 0.78 | 20.2 | -1.5 | 70.6 | 124.6 |
| COCC(=O)N(Cc1cc2cc(OC)ccc2[nH]c1=O)c1ccccc1OC | 88.5 | i | 0.92 | -0.8 | -1.1 | . | . |
| Cc1ccc(S(=O)(=O)N2CCC(=O)N2)cc1 | 89.4 | i | 0.83 | 6.9 | -0.8 | 20.0 | 107.2 |
| CCOc1ccc(N/C=C/C(=O)c2ccccc2)c([N+](=O)[O-])c1 | 110.0 | . | . | -11.0 | -1.1 | . | . |
| Cc1ccc(-c2csc(C3=C(O)CN(NC(=O)c4ccc([N+](=O)[O-])cc4)C3=N)n2)cc1 | 97.2 | i | 0.9 | -7.8 | . | -23.5 | 122.6 |
| O=C1c2oc3ccccc3c(=O)c2C(c2cccc(O)c2)N1CCCN1CCOCC1 (stereo unspecified) | 101.0 | i | 0.95 | 4.8 | -1.1 | . | . |
| CC(C)CCNC(=O)c1ccc2c(SCC(=O)O)c3c(nc2c1)CCC3 | 105.2 | i | 1.08 | . | . | . | . |
| Cn1c(=O)c2c(nc(Sc3nc4ccccc4n3CC(=O)N3CCCCC3)n2C)n(C)c1=O | 88.7 | i | 0.99 | -12.5 | -0.7 | . | . |

Screening results deposited in PubChem BioAssay by several laboratories.
